# Sfp inh: inhibitors of Bacillus subtilis Sfp phosphopantetheinyl transferase; AID 1490; Potency, µM, without a hit: max response, negative = inhibition, actives largely listed as inhibitors; Q9F4F7; Biochemical Sfp PPTase activity, qHTS; 3.5% of 310,000 active; active = well fitted inhibition curve with a large enough effect; inconclusive = small, poorly fitted or top-dose-only effect, or another doubt; inactive = no such curve, though single readings can be large or run the other way;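 note: the enzyme is Sfp with the accession as filed and its product quenches rhodamine fluorescence; potency is the fitted concentration of half-maximal effect; 0% = enzyme reaction without inhibitor and -100% = no enzyme wells; top concentration of the series not given in the record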
#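 Compounds were incubated with enzyme (final 15 nM) for 15 min at room temperature before substrate addition started the reaction. Fluorescence at 525 nm excitation, 598 nm emission was recorded immediately and after 30 minutes.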
# TRPV1 PAM: enhances activation of the human vanilloid receptor TRPV1; TRPV1-expressing cells, Fluo-8 calcium influx, capsaicin EC20 potentiation; host cell line not named in the record; control for the full effect not named in the record; potentiation, % at 8.33 µM; 0.02% of 320,000 active; AID 540277; active means potentiation above 80%; inconclusive means 30% to 80%; inactive means below 30%; note: 0% is about no effect
# Target sequence (Q8NER1 whole entry, looked up): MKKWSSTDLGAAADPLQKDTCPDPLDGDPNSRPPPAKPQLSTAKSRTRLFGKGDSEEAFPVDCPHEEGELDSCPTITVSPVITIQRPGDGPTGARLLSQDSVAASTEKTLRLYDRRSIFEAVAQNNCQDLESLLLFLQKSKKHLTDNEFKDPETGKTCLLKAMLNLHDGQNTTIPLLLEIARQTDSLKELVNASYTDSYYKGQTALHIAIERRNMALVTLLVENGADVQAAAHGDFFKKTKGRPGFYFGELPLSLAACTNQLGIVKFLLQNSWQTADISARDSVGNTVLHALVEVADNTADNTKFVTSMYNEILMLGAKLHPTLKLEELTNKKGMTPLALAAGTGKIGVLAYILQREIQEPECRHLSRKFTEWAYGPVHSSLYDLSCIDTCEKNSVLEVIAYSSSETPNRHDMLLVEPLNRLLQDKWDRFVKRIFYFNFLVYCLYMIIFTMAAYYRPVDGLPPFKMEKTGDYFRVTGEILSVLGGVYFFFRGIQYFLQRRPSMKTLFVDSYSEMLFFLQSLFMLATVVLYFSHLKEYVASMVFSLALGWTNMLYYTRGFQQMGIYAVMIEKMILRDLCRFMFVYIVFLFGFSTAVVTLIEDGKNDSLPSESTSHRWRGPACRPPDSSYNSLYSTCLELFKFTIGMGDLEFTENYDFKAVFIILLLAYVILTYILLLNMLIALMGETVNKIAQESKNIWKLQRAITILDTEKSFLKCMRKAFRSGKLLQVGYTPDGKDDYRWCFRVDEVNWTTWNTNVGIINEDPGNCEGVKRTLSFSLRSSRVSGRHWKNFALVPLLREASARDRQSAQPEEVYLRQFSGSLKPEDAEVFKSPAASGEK
#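 TRPV1-expressing cells were cultured overnight at 35.5C and loaded with Fluo-8 calcium dye for 40 to 90 min at room temperature. After a 10 s baseline, compound was added and calcium influx was read kinetically for 3 min (ex 480/em 520 nm).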
# gsp antag: antagonists of gsp mutant (McCune-Albright syndrome) | gsp-mutant cells, cAMP HTRF, 30 min; control for the full effect not named in the record | Potency, µM (titrated, usually from 76.9 µM), inactives show top-dose activity change, negative = inhibition, actives largely listed as inhibitors | 0.4% of 340,000 active; active = falling curve of any shape with a large fitted effect; inconclusive = falling curve, mostly with a smaller effect; inactive = flat or rising curve; cell line not stated here;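 note: intracellular cAMP measured with PDE inhibitor Ro 20-1724 present during compound exposure; potency is the fitted concentration of half-maximal effect; % is set by controls: 0 for no effect and ±100 for the full control effect; nearly all actives have a fitted effect of over 65% in size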
#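 Cells in G418 medium, seeded 16-24 h, 37C; buffer exchange to DPBS + 1 mM CaCl2, 0.5 mM MgCl2, 0.05% BSA; cpds in DMSO + […] (300 uM stock), 30 min 37C; HTRF cAMP detection.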
# gsp ag: agonists of gsp mutant (McCune-Albright syndrome). 0.13% of 340,000 active. gsp mutant cells, cAMP HTRF, 30 min; control for the full effect not named in the record. AID 624287. Potency, µM (highest dose often 76.9 µM), without a hit: at the highest dose activation (cAMP increase), hits mostly activators; active = well fitted activation curve with a large enough effect; inconclusive = small, poorly fitted or top-dose-only effect, or another doubt; inactive = no such curve, though single readings can be large or run the other way; cell line not stated here;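 note: phosphodiesterase inhibitor Ro 20-1724 added with compounds to block cAMP breakdown; potency is the fitted concentration of half-maximal effect; nearly all actives have a fitted effect of over 60% in size; about a fifth of the inactives were tested at one dose only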
#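 Cells stably selected in G418 were plated at 2000/well, grown 16-24 hr, then given compounds in DMSO with the PDE inhibitor […] (300 uM solution added) for 30 min at 37C; cAMP was read by HTRF.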
# ClpP mod: qHTS Assay for Activators of ClpP | ATP-dependent Clp protease proteolytic subunit (Bacillus subtilis (strain 168)), P80244 | purified B. subtilis ClpP, FRET peptide cleavage, 20 min | Potency, µM (doses to about 57.5 µM), for the others: top-dose activity change, negative = active | 1.9% of 340,000 active | AID 651965, 2013; active = well fitted falling curve with a large enough effect; inconclusive = small, poorly fitted or top-dose-only effect; inactive = no such curve, though single readings can be large or run the other way; note: potency is the fitted concentration of half-maximal effect; the source files actives as falling curves though it sought activators and does not explain the sign; nearly all actives have a fitted effect of over 65% in size; many hits overshoot -100%
# Target sequence (P80244 whole entry, looked up): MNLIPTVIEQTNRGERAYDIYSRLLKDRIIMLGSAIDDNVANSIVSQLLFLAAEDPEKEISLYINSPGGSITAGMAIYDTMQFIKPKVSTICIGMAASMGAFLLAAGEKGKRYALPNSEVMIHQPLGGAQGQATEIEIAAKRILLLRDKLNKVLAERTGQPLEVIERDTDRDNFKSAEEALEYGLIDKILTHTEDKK
#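 Purified B. subtilis ClpP, 10 microg/mL final in Tris/HCl pH8 with KCl, BSA, glycerol and Tween-20, cleaved an Abz/nitrotyrosine-quenched decapeptide. Fluorescence (ex 320, em 430) was read at 0 and 20 min at room temperature. Delta was normalized to 5.8 microM ADEP and DMSO/no-enzyme controls.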
# Menin MLL FP FL: inhibitors of human menin-MLL interaction, wild-type MLL peptide. Fluorescence polarization, fluorescein-MLL peptide displacement from menin. FP activity change, % at 61.4 µM. 290,000 tested, under 10 active. AID 1766; inconclusive = falling polarisation curve, or a change in total fluorescence; inactive = total fluorescence flat and polarisation flat or rising; no compound was filed as active; the % refers to the polarisation; negative = inhibition;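 note: % of control where 0% means no effect; inhibitors lower the polarisation; unlabelled MLL peptide was the positive control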
# TRPML1 inh: inhibitors of human TRPML1 channel. TRPML1-inducible cells, Ca2+ dye fluorescence, FDSS; hits give low values; inhibition of EC80 agonist-evoked calcium signal. AID 624415. activity change, negative = inhibition, % (no concentration beside the values). 0.02% of 390,000 active. Q9GZU1; in the data active means activity change below about -50%; inconclusive means about -30% to -50%; inactive means above about -30%;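 note: stimulus is agonist 54-4 at its EC80 concentration; % is set by controls: 0 for no effect and ±100 for the full control effect; compound concentration not given in the record; the text of the record puts the active cut at -80%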
#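 Calcium fluorescence in TRPML1-DL cells induced overnight with Tet: a 110 s read after compound pin addition, then a 110 s antagonist read after challenge with 54-4 at 4 uM final (EC80).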
# * hit, by the source's call; ? = inconclusive; nt = not tested or not shown; & = joins results of further samples; [ ] = remark or other dose. Not a hit list; 4.9% or so of the library scored in one or more.
# Start of the data: the first 4 compounds (preview)
SMILES,Sfp inh,TRPV1 PAM,gsp antag,gsp ag,ClpP mod,Menin MLL FP FL,TRPML1 inh
COCCn1c(C)cc(C2=NNC(=Nc3ccccc3)SC2)c1C,22µM*,24,26%,0%,2.5%,0.2,-11
O=S(=O)(/N=C(/Nc1ccc(F)c(F)c1F)c1ccccc1)c1ccccc1,10%,-1,-8%,25%[15.4 µM],-2.5%,2.4,19
COc1ccc(/C(N)=N/OC(=O)c2cccs2)cc1OC,9%,5,10%,5%[15.4 µM],nt,5.6,5
Nn1c(=O)[nH]c2c([nH]c3ccccc32)c1=O,13%,7,nt,-1%[15.4 µM],nt,-0.5,-6

# This part in full, repeating the preview:
SMILES,Sfp inh,TRPV1 PAM,gsp antag,gsp ag,ClpP mod,Menin MLL FP FL,TRPML1 inh
COCCn1c(C)cc(C2=NNC(=Nc3ccccc3)SC2)c1C,22µM*,24,26%,0%,2.5%,0.2,-11
O=S(=O)(/N=C(/Nc1ccc(F)c(F)c1F)c1ccccc1)c1ccccc1,10%,-1,-8%,25%[15.4 µM],-2.5%,2.4,19
COc1ccc(/C(N)=N/OC(=O)c2cccs2)cc1OC,9%,5,10%,5%[15.4 µM],nt,5.6,5
Nn1c(=O)[nH]c2c([nH]c3ccccc32)c1=O,13%,7,nt,-1%[15.4 µM],nt,-0.5,-6
CCn1c(=O)cc(OCC(=O)N2CCN(C(=O)c3ccco3)CC2)c2ccccc21,10%,10,-5%,-40%[inhibitor],-18%,3.1,3
CN(C)CCCNC(=O)/C(=C/c1ccc(-c2ccc([N+](=O)[O-])cc2)o1)NC(=O)c1ccccc1,11%,6,5%,?,-2.1%,5.9,7
CC(=O)Nc1cccc(NC(=O)CSc2ccc(-c3ccccn3)nn2)c1,11%,11,-5%,4%[15.4 µM],-0.6%,-4.5,21
O=C(CN1C(=O)c2cccc3cccc1c23)NCc1ccncc1,10%,0,-3%,4%,-3.7%,3.1,39
C=CCn1c(CCC(=O)O)ccc1-c1ccccc1,16%,7,-3%,-9%,28µM*,1.2,12
C[C@H](CO)N1C[C@H](C)[C@@H](CN(C)C(=O)Nc2ccccc2)Oc2ccc(NC(=O)Nc3ccc4c(c3)OCO4)cc2C1=O,nt,nt,-2%,nt,1.3%,nt,1
CC(=O)N/N=c1\sc2ccccc2n1C,18%,8,nt,19%[15.4 µM],nt,-8.9,0
CC(C)c1ccc2oc(-c3cc(N)ccc3O)nc2c1,-5%,1,11%,1%,1.9%,2.4,-18
COc1ccc(C(=O)N[C@H](C(=O)N2CCN(c3ccccc3F)CC2)C(C)C)cc1,0%,18,1%,-33%,2.5%,-1.4,-11
O=C(Nc1nccs1)c1ccc(CSc2ccccc2)o1,1%,24,-16%,2%,-3.6%,nt,33
CCOC(=O)C1CCCN1C(=O)c1ccc(OC)c(Br)c1 (stereo not drawn),9%,6,13%,16%,1.4%,1.4,8
CN(C)S(=O)(=O)c1ccc2nc(NC(=O)c3cccnc3)sc2c1,-22%,29,-8%,44%,-3.9%,2.2,-10
CON(C)S(=O)(=O)NC(=O)C1=C(N2CCCC2)COC1=O,nt,4,11%,?,-0.5%,nt,30
O=c1[nH]c(CN2CCN(S(=O)(=O)/C=C/c3ccccc3)CC2)nc2cc(Cl)ccc12,5%,12,-9%,-2%[15.4 µM],nt,25,-7
O=C(COc1ccc(S(=O)(=O)N2CCOCC2)cc1)Nc1cccc([N+](=O)[O-])c1,7%,-2,-6%,3%,-1.6%,-1.6,-3
COc1ccc2[nH]c3c(NCCCOC(C)C)ncnc3c2c1,-6%,20,-8%,19%[15.4 µM],nt,1.7,7
CC1Oc2ccccc2OC1C(=O)Nc1nccs1 (stereo not drawn),9%,?,7%,2%,-0.1%,nt,10
CC(=O)OC[C@H]1O[C@@H](Oc2cc(O)cc3oc(-c4ccc(O)cc4)cc(=O)c23)[C@H](O[C@@H]2O[C@@H](C)[C@H](O)[C@@H](O)[C@H]2O)[C@@H](O)[C@@H]1O,nt,nt,4%,nt,-10%,nt,-4
CC1(c2cccc(Br)c2)NC(=O)N(CC(=O)Nc2cccnc2Cl)C1=O (stereo not drawn),7%,-15,2%,-10%,-1.2%,1.5,-11
Cc1cc(-n2c(C)cc(C(=O)COc3ccccc3[N+](=O)[O-])c2C)no1,13%,15,nt,12%[15.4 µM],nt,0.4,-11

# 6 of the compounds above, with bars between the fields.
molecule | Sfp inh | TRPV1 PAM | gsp antag | gsp ag | ClpP mod | Menin MLL FP FL | TRPML1 inh
O=C(CN1C(=O)c2cccc3cccc1c23)NCc1ccncc1 | 10% | 0 | -3% | 4% | -3.7% | 3.1 | 39
CN(C)S(=O)(=O)c1ccc2nc(NC(=O)c3cccnc3)sc2c1 | -22% | 29 | -8% | 44% | -3.9% | 2.2 | -10
C=CCn1c(CCC(=O)O)ccc1-c1ccccc1 | 16% | 7 | -3% | -9% | 28µM* | 1.2 | 12
CON(C)S(=O)(=O)NC(=O)C1=C(N2CCCC2)COC1=O | nt | 4 | 11% | ? | -0.5% | nt | 30
CC(=O)OC[C@H]1O[C@@H](Oc2cc(O)cc3oc(-c4ccc(O)cc4)cc(=O)c23)[C@H](O[C@@H]2O[C@@H](C)[C@H](O)[C@@H](O)[C@H]2O)[C@@H](O)[C@@H]1O | nt | nt | 4% | nt | -10% | nt | -4
O=C(Nc1nccs1)c1ccc(CSc2ccccc2)o1 | 1% | 24 | -16% | 2% | -3.6% | nt | 33

# Continuation.
SMILES,Sfp inh,TRPV1 PAM,gsp antag,gsp ag,ClpP mod,Menin MLL FP FL,TRPML1 inh
CCCC[C@@H]1CNC(=S)N1CCCC,8%,7,?,nt,0.7%,-6.0,13
O=C(C[C@@H]1C/C=C\CCC(=O)OC[C@@H]2CCCN2C1=O)N[C@H](CO)Cc1ccccc1,nt,nt,10%,nt,1.5%,nt,-16
CCOc1ccc(S(=O)(=O)Nc2cccc(C(=O)NCC(C)(C)N3CCOCC3)c2)cc1,nt,2,-8%,-9%[15.4 µM],nt,nt,-6
CCc1ccc(-c2nc(CS(=O)CC(=O)NCCCN3CCOCC3)c(C)o2)cc1 (stereo not drawn),-8%,-21,0%,24%,-13%,nt,27
Cc1ccc(-c2nnc(SCC(=O)NC(=O)Nc3ccc(C)cc3C)n2N)cc1,17%,-9,9%,13%,-1.7%,0.8,36
Fc1ccc(-n2c(-c3ccc4ccccc4n3)n[nH]c2=S)cc1Cl,19%,10,-36%,54%[15.4 µM],0.7%,-0.2,0
Cc1ccc(C(=O)NC(=S)Nc2cccc3c(C)cc(C)nc23)cc1,-6%,4,-12%,22%,1.8%,1.4,4
CC(C)Oc1ccc(C(=O)NC2=NCCS2)cc1,35µM*,-9,-1%,7%[15.4 µM],nt,-2.1,-10
CCOc1cc(N2CCOCC2)c(OCC)cc1NC(=O)COC(=O)c1ccc(Cl)cc1N,nt,0,-22%,-15%,-15%,nt,12
O=C1/C(=C\c2ccccc2)CCc2c1[nH]c1ccccc21,9%,-3,-7%,0%,-0.7%,-0.7,4
Cc1cc(C(=O)N/N=C/c2ccc(OCc3ccccc3)cc2)c(C)o1,10%,3,-30%,3%[15.4 µM],nt,4.8,12
Cc1nn(CC(=O)Nc2ccc(C(C)C)cc2)c(C)c1[N+](=O)[O-],-1%,0,3%,20%,-0.5%,1.6,-4

# Single records, as listed above. Values in the order: Sfp inh | TRPV1 PAM | gsp antag | gsp ag | ClpP mod | Menin MLL FP FL | TRPML1 inh
# Results for O=C(CN1C(=O)c2cccc3cccc1c23)NCc1ccncc1 → 10% | 0 | -3% | 4% | -3.7% | 3.1 | 39
# Results for CON(C)S(=O)(=O)NC(=O)C1=C(N2CCCC2)COC1=O → nt | 4 | 11% | ? | -0.5% | nt | 30
# Results for Cc1nn(CC(=O)Nc2ccc(C(C)C)cc2)c(C)c1[N+](=O)[O-] → -1% | 0 | 3% | 20% | -0.5% | 1.6 | -4

# (further entries)
SMILES,Sfp inh,TRPV1 PAM,gsp antag,gsp ag,ClpP mod,Menin MLL FP FL,TRPML1 inh
CCN(CC)C(=O)[C@H]1C[C@H](CC(=O)NCCN2CCOCC2)C(=O)N2CCc3c([nH]c4ccc(Cl)cc34)[C@]12C,nt,nt,4%,nt,-2.8%,nt,2
COc1cccc(NC(=O)COC(=O)c2ccc3c(c2)OCO3)c1,nt,-11,4%,-11%[15.4 µM],?,nt,4
C=CCSc1ncc(CO)n1Cc1ccccc1,20%,3,3%,43%,2.3%,3.2,1
C/C(=N/OC(=O)c1c(-c2c(F)cccc2Cl)noc1C)c1cnccn1,7%,-2,2%,-32%[inhibitor],-0.5%,6.2,-14
CN(c1ccccc1C(=O)N1CCN(Cc2ccc3c(c2)OCO3)CC1)S(C)(=O)=O,12%,4,0%,1%[15.4 µM],nt,0.8,-17
CCn1nnc(NC(=O)COc2cc(C)ccc2C(C)C)n1,-4%,-20,1%,1%,-0.6%,3.5,6
COc1ccccc1N(CC(=O)NCCSCc1cccc(Cl)c1)S(C)(=O)=O,-3%,-26,-15%,-51%[inhibitor],0.2%&-1.8%,-14,-4&-10
COc1ccc(CCNC(=O)CNS(=O)(=O)c2ccc(Cl)cc2)cc1,nt,nt,0%,20%[15.4 µM],nt,nt,-10
Cc1nn(C)c(C(=O)Nc2ccc3c(c2)OCO3)c1[N+](=O)[O-],8%,4,-7%,5%,13%,nt,-11
COc1ccc(C(=O)NN(C)c2nc(-c3ccccc3)nnc2C(F)(F)F)cc1,-8%,-18,6%,5%,-12%,2.9,-3
O=C(O)c1ccc(C(=O)Nc2ccc(F)cc2)cc1,nt,2,8%,nt,1.0%,nt,38
O=C1CCC(C(=O)N2CCc3c(Cl)cccc3C2)CN1CCCN1CCOCC1 (stereo not drawn),14%,5,12%,?,-2.3%,nt,-1
O=C(CNC(=O)c1ccc(S(=O)(=O)N2CCCC2)cc1)N/N=C/c1ccc(F)cc1,22%,-4,-12%,-22%,5.9%,2.7,24

# Bioassay records: PubChem BioAssay, National Center for Advancing Translational Sciences (NCATS)
